PrPC surface inh: inhibitors of human cell surface prion protein PrPC, primary screen, cell-based, TR-FRET; Major prion protein (Homo sapiens), P04156; TR-FRET read-out; inhibition, % at 13.8 µM; actives 0.43% (n = 370,000); in the data active = inhibition above about 24%; also: 0% = median of the test wells and 100% = reference compound wells
TcdB inh: TcdB glycohydrolase inhibitors, primary screen, biochemical, single point, plate reader | Toxin B (Clostridioides difficile), P18177 | TcdB glycohydrolase enzymatic assay | inhibition, % at 9.99 µM | actives 0.24% (n = 350,000); in the data active = inhibition above about 10%
Anthrax LF inh2: Bacillus anthracis LF protease inhibitors, primary screen, biochemical, multiplex microsphere, MLPCN library | Lethal factor (Bacillus anthracis), P15917 | inhibition, % at 10 µM | actives 0.12% (n = 360,000) | AID 588501, 2011 | multiplex microsphere protease cleavage assay; in the data active = inhibition above about 30%; also: plate controls were buffer without enzyme for full effect and enzyme alone for no effect
PfHsp40 yeast: rescue of yeast from PfHsp40 toxicity, primary screen, S. cerevisiae, ATP luminescence. S. cerevisiae expressing PfHsp40, growth rescue. growth rescue, % at 12.5 µM. actives 0.68% (n = 340,000). AID 504582, 2011; in the data active = growth rescue above about 28%, passing the limit was not always enough;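 also: yeast W303a lacking pdr1 and pdr3 grown in galactose medium; growth measured after three days at 30 °C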
Y pestis TopoI: Yersinia pestis topoisomerase I inhibitors, primary screen, biochemical, cleavage product accumulation, plate reader, single point. activity, % at 10 µM. Y. pestis Topo-I cleavage product accumulation. AID 504884, 2011. actives 0.064% (n = 360,000). DNA topoisomerase I (Yersinia pestis CO92); in the data active = activity above about 50%, passing the limit was not always enough; also: inactives centre near 2
Active calls of the source: *; nt = not tested or not shown. Some of the compounds tested (hit frequency here may not be typical).

1: O=C(NCCN1CCC(n2c(=O)[nH]c3ccccc32)CC1)c1ccc2ccccc2c1
2: CCOc1ccc2nc(S(N)(=O)=O)sc2c1
3: CC(=O)c1nc2ccccc2n1S(=O)(=O)c1ccc(Cl)cc1
4: Cc1cccc(N2CCN(C(=O)c3cc4c(=O)n(C)c5ccccc5c4n3C)CC2C)c1 (configuration not stated)
5: Cc1nc(-c2ccccc2)c(-c2ccccc2)[nH]1
6: Cc1nc2ccc(S(=O)(=O)NCC(=O)NCCN3CCCCCC3)cc2s1
7: O=c1c(/C=C(\O)c2ccccc2)nc2ccccc2n1-c1ccccc1
8: NS(=O)(=O)c1ccc(NC(=O)Nc2ccccc2)cc1
9: O=C1NC[C@H](c2ccccc2)OC(=O)[C@H](Cc2ccc(F)cc2)CC/C=C/C[C@H]1CC(=O)N(CCO)Cc1ccccc1
10: CC(C)(C)c1cc(NC(=O)COC(=O)c2ccccc2O)n(-c2ccccc2)n1
11: COc1cccc(C(=O)NCCN2CCN(c3ccccc3)CC2)c1
12: N#Cc1c(-c2cccc(Br)c2)cc(-c2ccco2)[nH]c1=O

screen / no. | 1 | 2 | 3 | 4 | 5 | 6 | 7 | 8 | 9 | 10 | 11 | 12
PrPC surface inh | -9 | 10 | -3 | nt | -8 | -6 | 1 | -4 | 9 | 1 | -3 | -12
TcdB inh | -3.0 | 2.6 | 0.0 | nt | nt | nt | nt | 0.8 | -6.2 | 0.2 | -0.1 | -1.0
Anthrax LF inh2 | -4 | -6 | 0 | -11 | -3 | 1 | 41* | 7 | 0 | -9 | -2 | 0
PfHsp40 yeast | nt | -1.6 | 1.8 | nt | -0.3 | -0.4 | 2.8 | -0.7 | 2.7 | nt | 0.1 | -0.3
Y pestis TopoI | nt | 7 | 8 | 35 | 13 | -12 | 7 | -10 | 7 | 7 | -2 | 4

An excerpt from above, limited to TcdB inh, Anthrax LF inh2 and Y pestis TopoI:
cpd	mol	TcdB inh	Anthrax LF inh2	Y pestis TopoI
2	CCOc1ccc2nc(S(N)(=O)=O)sc2c1	2.6	-6	7
3	CC(=O)c1nc2ccccc2n1S(=O)(=O)c1ccc(Cl)cc1	0.0	0	8
4	Cc1cccc(N2CCN(C(=O)c3cc4c(=O)n(C)c5ccccc5c4n3C)CC2C)c1 (configuration not stated)	nt	-11	35
5	Cc1nc(-c2ccccc2)c(-c2ccccc2)[nH]1	nt	-3	13
6	Cc1nc2ccc(S(=O)(=O)NCC(=O)NCCN3CCCCCC3)cc2s1	nt	1	-12
7	O=c1c(/C=C(\O)c2ccccc2)nc2ccccc2n1-c1ccccc1	nt	41*	7

As entered above:
Cc1nc(-c2ccccc2)c(-c2ccccc2)[nH]1 in Anthrax LF inh2 shows -3
NS(=O)(=O)c1ccc(NC(=O)Nc2ccccc2)cc1 in Y pestis TopoI shows -10

Source: PubChem BioAssay
